# Compound activity (PubChem)
# MT1-MMP act inh: blockers of MT1-MMP proenzyme processing, primary screen, HT1080 RFP-PRO-GFP cells, GFP/RFP fluorescence; AID 651647, 2012; GFP/RFP ratio change, % at 20 µM; GFP/RFP ratio fluorescence, overnight; percent of plate control window, DMSO zero; 360,000 tested, 0.061% active; Matrix metalloproteinase-14 (Homo sapiens), P50281;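 active = GFP/RFP ratio change of at least 30% with cell ATP level not reduced by more than half and red fluorescence within 50% of control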; also: strong numbers were not always called active
#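 Assay system: RFP-PRO-GFP reporter HT1080 cells; read-out basis: GFP/RFP fluorescence ratio; benchmarks: DMSO wells and RFP-L50D-GFP cells; doses: 20 µM single dose, 1% DMSO; schedule: overnight cell settling, then overnight compound exposure, 37 °C, 5% CO2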
# HIV Env fusion: inhibitors of HIV-1 Env-driven cell-cell fusion, primary screen, HeLa-JRFL effector, CEM21 target cells, luciferase; AID 651610, 2012; inhibition, % at 12.3 µM; 360,000 tested, 1.1% active;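 active = mean replicate inhibition score of at least 50 and every replicate individually at or above 50; inconclusive = only one of the two criteria met; inactive = mean below 50 and not all replicates reaching 50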;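 also: 0% = plate neutral controls and 100% = maraviroc near 300 nM; one replicate is shown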
# PABP FP inh: PABP poly(A) RNA binding inhibitors, primary screen, biochemical, fluorescence polarization, uHTS; AID 2014, 2009; inhibition, % at 35 µM; 290,000 tested, 1% active; Polyadenylate-binding protein 1 (Homo sapiens), P11940;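 active = 50% or more with normal probe brightness, or confirmed in later tests; inconclusive = above 50% with abnormal brightness, or retests that disagree; inactive = below 50% or failed in later tests; about a fifth of its hits are not listed in these tables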;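 also: calls also rest on retests at 20 µM and on dose response follow-up; controls were probe without protein and protein plus probe with vehicle; some compounds called inactive have numbers as strong as hits; many hits fall short of the cut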
# Target sequence (P11940 whole entry, looked up): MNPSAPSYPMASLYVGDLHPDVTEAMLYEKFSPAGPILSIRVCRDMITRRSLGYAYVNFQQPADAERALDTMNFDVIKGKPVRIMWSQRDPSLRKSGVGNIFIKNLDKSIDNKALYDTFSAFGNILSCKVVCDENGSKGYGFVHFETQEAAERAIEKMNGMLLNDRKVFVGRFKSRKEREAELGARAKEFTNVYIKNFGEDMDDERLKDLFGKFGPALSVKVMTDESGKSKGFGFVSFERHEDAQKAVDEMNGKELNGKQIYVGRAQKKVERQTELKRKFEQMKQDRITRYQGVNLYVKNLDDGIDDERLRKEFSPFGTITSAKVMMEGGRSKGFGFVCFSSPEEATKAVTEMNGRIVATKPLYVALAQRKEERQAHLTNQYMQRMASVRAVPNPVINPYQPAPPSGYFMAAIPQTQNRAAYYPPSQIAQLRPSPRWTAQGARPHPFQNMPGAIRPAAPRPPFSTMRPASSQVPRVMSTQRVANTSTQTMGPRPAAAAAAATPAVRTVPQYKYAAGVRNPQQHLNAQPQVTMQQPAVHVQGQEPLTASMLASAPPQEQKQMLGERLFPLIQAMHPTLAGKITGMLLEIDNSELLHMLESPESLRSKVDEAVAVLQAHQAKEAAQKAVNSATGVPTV
# UUG fidelity: modulators of yeast start codon fidelity, primary screen, whole organism, S. cerevisiae, single point, plate reader; 350,000 tested, 0.13% active; S. cerevisiae UUG-firefly luciferase reporter, luminescence/redox ratio; activity score, % at 18.7 µM;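 active = replicate mean at a twofold rise or more, about +100% in these data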;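 also: firefly luciferase made from a UUG start codon reports start codon fidelity; reporter light over untreated wells divided by growth signal over untreated wells; some hits fall short of that in this replicate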
# eIF4H FP inh: human eIF4H binding inhibitors, primary screen, translation initiation inhibitor project, biochemical, uHTS, fluorescence polarization. Eukaryotic translation initiation factor 4H (Homo sapiens), Q15056. eIF4H fluorescence polarization binding assay. inhibition, % at 35 µM. 290,000 tested, 0.94% active. AID 2012, 2009;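 active = 50% or more with normal probe brightness, or confirmed in later tests; inconclusive = above 50% with abnormal brightness, or retests that disagree; inactive = below 50% or failed in later tests; about a fifth of its hits are not listed in these tables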;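 also: calls also rest on retests at 20 µM and on dose response follow-up; 0% = protein and probe with vehicle and 100% = probe without protein; strong numbers were not always called active; many hits fall short of the cut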
# Rce1 inh: yeast Rce1p protease inhibitors, primary screen, biochemical, fluorescence, cell-free homogeneous | 290,000 tested, 0.27% active | CAAX prenyl protease 2 (Saccharomyces cerevisiae (strain ATCC 204508 / S288c)), Q03530 | yeast membranes, quenched prenylated peptide cleavage fluorescence | calls only;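 active = fall in fluorescence gain of 50% or more versus controls, with final raw signal at or below 3038400; inconclusive = same 50% fall but final raw signal above 3038400; inactive = fall in fluorescence gain under 50%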;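 also: plate controls were neutral control wells for no effect and wells lacking membranes for full effect; tested at 10 µM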
# Target sequence (Q03530 whole entry, looked up): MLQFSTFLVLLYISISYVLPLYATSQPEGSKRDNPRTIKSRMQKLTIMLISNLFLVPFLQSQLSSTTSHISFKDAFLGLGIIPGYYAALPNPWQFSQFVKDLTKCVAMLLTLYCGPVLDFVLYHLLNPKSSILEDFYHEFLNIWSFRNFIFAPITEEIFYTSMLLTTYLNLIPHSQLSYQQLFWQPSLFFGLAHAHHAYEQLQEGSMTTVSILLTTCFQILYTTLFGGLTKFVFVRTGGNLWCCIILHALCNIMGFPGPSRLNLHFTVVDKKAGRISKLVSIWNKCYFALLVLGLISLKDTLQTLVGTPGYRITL
# CSC inhib: cancer stem cell viability inhibitors, primary screen, luminescence; cancer stem cell-like cells viability; inhibition, % at 7.5 µM; 300,000 tested, 1.1% active; AID 2717, 2010;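 active = mean at 75% or more and at least half the replicates too; inconclusive = mean and replicates disagree; tested in HMLE shEcad cells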;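 also: 0% = median of negative and 100% = median of positive control wells; the first replicate is given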
# eIF4H FP inh retest: further read-out of eIF4H FP inh, marked with its call; inhibition, %; compound at 20 µM; confirmation average;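 mean of two retest wells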
# PABP FP inh retest: also measured in PABP FP inh; calls as there; inhibition, %; compound at 20 µM; confirmation repeats;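 mean of two retest wells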
# MT1-MMP act inh RFP: also measured in MT1-MMP act inh; calls as there; RFP signal change, %; measured here: RFP expression control read;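 0 = vehicle wells; hits needed this value within 50% of zero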
# Starred values were filed as active, the others as inactive; i = inactive; ? = inconclusive; . = no result given.
SMILES,MT1-MMP act inh,MT1-MMP act inh RFP,HIV Env fusion,PABP FP inh,UUG fidelity,eIF4H FP inh,Rce1 inh,CSC inhib,others
CC1CCc2[nH]c3ccc(C(=O)Nc4ccc(C(=O)N(C)C)cc4)cc3c2C1 (centres undefined),0.1,-2.5,16.0,-2.0,-22.2,-5.6,i,-1.3,
Cc1ccc(S(=O)(=O)c2nc(S(=O)(=O)c3ccccc3)sc2N2CCN(CCO)CC2)cc1,-1.1,0.5,-4.5,6.8,-5.6,9.6,i,.,
S=C(NCCc1ccccc1)N1CCN(Cc2ccccc2)CC1,0.2,-1.5,0.4,1.7,.,-5.5,i,.,
COc1cccc(-c2cc3nc(NCCOc4ccccc4Cl)n(C)c(=O)c3s2)c1,-0.3,-6.6,23.7,.,-9.7,.,.,.,
COC(=O)c1c(N2C(=O)[C@H]3[C@@H](C2=O)[C@]2(C(=O)Nc4c(C)cccc42)N2CCC[C@@H]32)sc(C)c1C,-12.2,0.3,31.4,2.3,.,19.2,i,-2.3,
CCC(Sc1nnnn1-c1ccccc1)C(=O)Nc1nc2ccccc2s1 (centres undefined),-5.0,-4.8,.,2.6,-14.4,0.5,i,7.8,
O=C(NCCN=C1NS(=O)(=O)c2ccccc21)c1ccccc1,-1.2,2.7,-22.6,12.9,-12.0,-11.2,i,.,
CC(C)CN1CCN(C(=O)COC(=O)c2ccc(S(C)(=O)=O)c([N+](=O)[O-])c2)CC1,1.1,-4.9,33.0,.,4.3,.,.,.,
CNc1snc(C)c1C(=O)OCC(=O)N(C)Cc1ccccc1,-3.8,-18.6,.,.,-12.0,.,.,-11.7,
O=S1(=O)N=C(N(CCO)/N=C/c2ccc(Cl)cc2)c2ccccc21,-6.1,-6.1,-27.5,7.3,-11.7,0.5,i,-6.6,
C/C=C(\C)CN1CCCC(CO)(Cc2ccccc2)C1 (centres undefined),2.1,3.1,10.4,-3.0,-2.8,13.8,i,-4.0,
O=C(c1ccc(S(=O)(=O)c2cccc(Cl)c2)c([N+](=O)[O-])c1)N1CCN(Cc2ccccc2)CC1,-13.7,-23.1,47.9,-2.1,.,-1.2,i,.,
CC1CCC2=NN(C(=O)c3ccco3)C(O)(C(F)(F)F)C2C1 (centres undefined),1.7,4.2,10.4,?,.,?,i,7.5,
O=C(CNC(=O)Cc1ccccc1)NCC(=O)OCC(=O)c1ccc(Cl)cc1,-4.8,1.8,.,7.1,.,3.2,i,-6.8,
O=C(NC1CCCCCC1)C1CCCN(S(=O)(=O)c2cccs2)C1 (centres undefined),-0.8,-8.1,.,-2.6,-20.9,-16.4,i,-15.3,
Cc1ccc2nsnc2c1NC(=O)Cc1ccc(Cl)cc1,-3.9,-5.0,-10.0,-12.1,-2.4,-14.3,i,-10.6,
Cc1ccc2c(cnn2C(=O)CCCC(=O)NCc2cccc(F)c2)c1,1.7,8.5,-51.5,-4.6,-12.0,-8.8,i,3.5,
Cc1ccc(S(=O)(=O)NCc2ccccc2)cc1C(=O)N(C)Cc1ccccc1F,-2.2,0.7,-11.2,3.8,-27.5,6.7,i,-18.9,
Cc1ccccc1Nc1nnc(C)c(=O)n1N,3.5,7.2,.,-7.9,-13.4,5.2,i,-10.8,
c1ccc2c(CCNc3ncnc4nc[nH]c34)cccc2c1,4.7,-14.1,-92.7,-4.9,-25.1,0.2,.,41.0,
COc1ccc(C2CC(c3ccccc3)=NN2C(=O)c2cccs2)cc1 (centres undefined),-8.3,-8.4,?,-6.7,2.4,-17.8,i,13.0,
COc1ccc(-c2csc(NC(=O)C3CSC4(C)CCC(=O)N34)n2)c(OC)c1 (centres undefined),-1.4,0.3,-9.1,.,-7.0,.,i,12.3,
COC(=O)c1ccc2ccccc2c1OC1OC(CO)C(O)C(O)C1NC(C)=O (centres undefined),1.2,2.4,14.8,1.8,-2.8,4.8,i,-11.7,
Oc1cccc(-c2csc(C(O)(c3ccccc3)C(F)(F)F)n2)c1 (centres undefined),5.5,1.3,10.8,.,-17.8,.,.,.,
COc1ccc(NS(=O)(=O)c2cc(N)ccc2N2CCCC2)cc1,0.8,5.2,-27.8,.,-2.3,.,.,15.4,
Cc1ccc(NC(=O)CN(C)C(=O)Cc2c(Cl)cccc2Cl)cc1,-8.0,-2.0,4.3,4.4,1.7,-5.0,i,2.1,
CC(=O)c1cc2c(cc1NC(=O)CSc1nnc(C)s1)OCO2,6.7,4.6,.,-2.7,-16.6,-7.6,i,-3.6,
Cc1ccc(S(=O)(=O)N(CC(=O)NCCSc2ccccn2)c2ccccc2F)cc1,-2.7,-3.5,8.8,5.4,5.0,-12.5,i,-37.5,
CC1(C)CC(=O)C(N=Nc2cccnc2)=C(O)C1,-4.6,1.8,3.0,13.5,-14.6,-1.7,i,-11.8,
Fc1ccc(-c2nc3nc4ccccc4nc3n2Cc2ccco2)cc1,5.5,0.1,-44.2,4.8,-9.9,-2.9,i,21.1,
Cc1ccc(NC(=O)C(=O)c2cn(CC(=O)N3CCCCC3)c3ccccc23)cc1,-2.6,-4.9,17.0,-6.2,-13.4,1.5,i,-8.2,
Cc1cc(N2CCCC2=O)ccc1S(=O)(=O)N1CCOCC1,-2.4,3.5,22.6,-0.6,-7.6,-3.3,i,3.0,
CCOC(=O)N1CCN(CCC(=O)Nc2ccc(OC(F)(F)F)cc2)CC1,-1.5,-8.7,1.4,-10.2,11.0,-6.8,.,-10.7,
O=C(Cc1ncc(C(F)(F)F)cc1Cl)N1CCN(c2ccc(F)cc2)CC1,-11.6,-2.6,15.2,6.0,6.2,-0.6,i,-7.0,
CCc1nc2ccccc2c(C(=O)OCC(=O)Nc2cccc(S(=O)(=O)N3CCOCC3)c2)c1C,-4.4,-15.5,99.6*,-2.5,13.1,7.6,i,3.2,
CC(=O)Nc1cnc(-c2cccc(C(=O)N(C)C)c2)cn1,-7.0,1.4,-21.2,.,-24.7,.,.,.,
Cc1ccc(S(=O)(=O)N2CCOC2CNC(=O)C(=O)NCCN(C)C)cc1 (centres undefined),-1.7,0.6,-8.1,2.0,-23.1,6.0,i,26.2,
Cc1ccsc1/C=N/NC(=O)c1cccnc1,0.4,1.1,-2.9,1.8,.,-5.6,i,-3.4,
Cn1c(=O)cc(OCCCC(=O)N2CCCCC2)c2ccccc21,12.1,12.6,-19.6,3.9,-3.9,-1.2,i,-19.7,
CSc1nc2ccccc2cc1/C=C(\C#N)c1cccc(Cl)c1,-1.8,-12.7,.,-3.5,-16.9,-1.6,i,?,
CCCCN(C)C(=O)c1ccc(CS(=O)(=O)c2ccccc2C)o1,-1.5,-1.0,1.6,9.7,-8.7,-7.3,i,-3.1,
O=C(O[C@@H]1OC2COC(=O)c3cc(O)c(O)c(O)c3-c3c(cc(O)c(O)c3O)C(=O)O[C@@H]([C@H]1O)[C@@H]2O)c1cc(O)c(O)c(O)c1,-3.4,-7.1,.,-7.5,-14.4,105.2,i,3.8,eIF4H FP inh retest=-11.3;PABP FP inh retest=4.6
CCOC(=O)c1c(C)[nH]c(C)c1C(=O)COC(=O)/C=C/c1cccc([N+](=O)[O-])c1,0.1,0.2,1.6,.,3.0,.,.,.,
O=C(CSc1ccc(-c2ccco2)nn1)N1CCCCCC1,4.0,3.1,3.3,-3.6,.,38.1,i,0.9,
Cc1cc(C(=O)N/N=C/c2cc(Br)ccc2OC(=O)c2ccccc2)n[nH]1,-0.7,-9.1,.,8.5,-5.5,-3.6,.,61.0,
O=C(CCCCCN1C(=O)c2ccccc2C1=O)Nc1ccc(S(=O)(=O)N2CCCCC2)cc1,7.7,-8.1,29.2,3.0,4.5,-13.8,i,-7.0,
COc1ccc(C(=O)Nc2ccc3[nH]c(-c4cccc(OC)c4)cc(=O)c3c2)cc1,2.5,-4.0,-340.2,-5.0,15.7,-8.2,i,51.3,
O=C(NCC1CCCCC1)c1ccc(F)cc1Cl,1.4,1.4,-30.1,-10.5,-7.5,-7.6,i,1.3,
Cc1ccc(Cl)cc1N1CCN(S(=O)(=O)c2c(C)nc3scc(C)n3c2=O)CC1,-1.2,-2.8,5.3,3.3,-9.3,-7.3,i,58.3,
O=C(NCCOCc1ccccc1)C(c1ccccc1)c1ccccc1,-2.4,-1.9,8.4,27.2,.,-1.1,i,-11.5,
O=C(NNC(=O)c1cc(-c2ccncc2)nc2ccccc12)c1ccccc1F,-2.9,-3.5,.,.,-17.4,.,.,-10.5,
Cc1cccc(N2C(=O)N3[C@@H]4c5ccccc5OC[C@@H]4[C@@H](c4ccccc4)[C@]3(C)C2=O)c1,-2.0,-3.8,.,-10.2,-7.2,-12.8,i,22.8,
O/N=C(\Cn1ccnc1)c1ccccc1,-2.3,-0.6,-4.4,.,-1.8,.,.,.,
O=C(Cc1cccs1)Nc1nnc(SCC(=O)N2CCCCC2)s1,2.4,-3.6,-60.5,4.2,-10.2,2.3,i,-11.6,
CCOC(=O)c1c(-c2ccccc2)oc2ccc(O)c(CN3CCN(C)CC3)c12,-14.5,-17.6,35.4,15.6,11.1,-0.7,i,7.6,
COc1cc(CNCCCO)ccc1OCC(=O)NC(C)(C)C,1.0,5.0,-2.2,-1.1,.,2.0,i,.,
CCC(NC(=O)Cc1c(C)c2ccc(OC)c(C)c2oc1=O)C(=O)NC(Cc1ccc(Cl)cc1)C(=O)O (centres undefined),-0.2,-0.8,.,0.4,-2.1,3.5,i,-8.7,
COc1ccc(CCNC(=O)COC(=O)COc2ccc(C#N)cc2)cc1,1.5,2.9,-1.3,-7.7,.,-5.3,i,5.3,
CCN(CC)CCCN(C(C)=O)c1nc(-c2cc(OC)ccc2OC)cs1,-0.4,2.2,-45.2,0.8,-16.3,-7.1,i,-10.3,
O=C(c1csc2ccccc12)N1CCN(c2ccc(Cl)c(Cl)c2)CC1,4.5,-3.2,5.1,9.1,-26.5,-4.7,i,52.0,

# Following part:
SMILES,MT1-MMP act inh,MT1-MMP act inh RFP,HIV Env fusion,PABP FP inh,UUG fidelity,eIF4H FP inh,Rce1 inh,CSC inhib,others
Nc1c(C(=O)N/N=C/c2ccc(Cl)cc2)cnn1-c1ccccc1,5.3,2.8,5.0,-18.9,-11.7,-0.9,i,10.6,
CCc1cccc2sc(N(CCCN3CCOCC3)C(=O)CS(=O)(=O)c3ccccc3)nc12,-4.8,-1.9,5.7,.,-8.8,.,i,.,
CCc1ccccc1NC(=O)CCOc1ccccc1,-1.7,3.6,.,2.3,-11.6,-1.4,i,-5.6,
COc1ccc(-c2nnc3sc(-c4ccco4)nn23)cc1OC,5.4,3.5,-15.8,5.2,-4.4,19.1,i,4.2,
COc1ccccc1OCC(=O)N1CCN(S(=O)(=O)c2ccc(Cl)cc2)CC1,-2.5,4.4,-20.5,.,12.3,.,.,.,
O=C(c1ccccc1S(=O)(=O)NCc1ccccc1)N1CCCCC1,-5.1,1.7,-22.4,-5.9,-8.7,-8.9,i,3.3,

# Some of the compounds tested; the hit share may differ from the screen's.
